Methyltransferases: Primary Screen for Target Class Profiling of Small Molecule Inhibitors of Methyltransferases. purified enzyme, MTase-Glo SAH luminescence; hits give low values. 25,000 compounds, 3.9% hits. calls only at 40 µM; active = -50% or lower on at least one of six enzymes; inconclusive = the cases between; inactive = as a rule above -30% on all six;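 note: enzymes were COMT GAMT GNMT HNMT NNMT and PNMT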
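Each enzyme was assayed with SAM and its substrate. SAH formation detected by MTase-Glo luminescence; single-point 40 uM screen[…].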
Calls only; i = inactive; u = inconclusive; + = active, no number. % is set by controls: 0 for no effect and ±100 for the full control effect. Some of the compounds tested, so the mix of outcomes need not match the whole.

Structure	Methyltransferases
Cn1ccc(NC(=O)c2cc(Oc3ccc(C(=O)N4CCC4)c(F)c3)c3c(c2)OC(C)(C)C3)n1	i
Cn1cc(CN2CCCC(COc3ccccc3C(=O)N3CCCCC3)C2)c2ccccc21 (configuration not stated)	+
COc1ccc(C)cc1NC(=O)C1CCCN(c2cn[nH]c(=O)c2)C1 (configuration not stated)	i
CN1CCCC2(CCN(c3nc4c(cc3C(N)=O)CCC4)C2)C1=O (configuration not stated)	u
Cc1cn2nc(C(=O)NCc3cccnc3)cc2c(=O)[nH]1	i
Cc1nnc([C@@H]2CC(F)(F)CN2C(=O)c2cccc3[nH]ccc23)o1	i
Cc1ccc(NS(=O)(=O)c2ccc3[nH]c4c(c3c2)CCCC4)cc1Cl	i
CCc1ccc(-c2cc3n(n2)CC(C)(C(=O)NC2CCCCCC2)N(CCCOC(C)C)C3=O)cc1 (configuration not stated)	i
CC1(C(=O)NC2CCCCC2)Cn2c(cc3ccccc32)C(=O)N1Cc1cccc(Br)c1 (configuration not stated)	i
CC(C)NC(=O)CCc1nnc2n(Cc3ccc(Cl)cc3)c(=O)c3ccccc3n12	i
Cc1ccc(CCNC(=O)CCc2nnc3n(Cc4ccc(F)cc4)c(=O)c4ccccc4n23)cc1	i
CNC(=O)[C@@H]1CCCC[C@@H]1C(=O)N1CCn2nc(Cc3ccccc3)cc2C1	i
CCc1cc2c(cc3n2CC(C)(C(=O)NC2CCCCC2)N(Cc2ccccc2OC)C3=O)s1 (configuration not stated)	i
Cc1cc2sc(NC(=O)Cc3ccccc3)nc2cc1Cl	i
CC(C)CCN1C(=O)c2cc3occc3n2CC1(C)C(=O)NC1CCCCC1 (configuration not stated)	i
Cc1cccc(NC(=O)N2CCCC(Cc3noc(-c4cnccn4)n3)C2)c1 (configuration not stated)	i
CC(=O)CCC1=C(C)C(O[C@@H]2O[C@H](CO)[C@@H](O)[C@H](O)[C@H]2O)C(O)CC1(C)C (some centres not stated)	i
CCN1CCN(Cc2ccc(NC(=O)c3ccc(C)c(NC(=O)c4cncc(-c5cccs5)c4)c3)cc2C(F)(F)F)CC1	i
COCCOc1cc2ncnc(Cl)c2cc1OCCOC	i
CC(=O)OC1C(c2ccccc2)CCC(c2ccccc2)C1OC(C)=O (configuration not stated)	i

Of the compounds above, these contain a Cl atom.
Structure	Methyltransferases
Cc1ccc(NS(=O)(=O)c2ccc3[nH]c4c(c3c2)CCCC4)cc1Cl	i
CC(C)NC(=O)CCc1nnc2n(Cc3ccc(Cl)cc3)c(=O)c3ccccc3n12	i
Cc1cc2sc(NC(=O)Cc3ccccc3)nc2cc1Cl	i
COCCOc1cc2ncnc(Cl)c2cc1OCCOC	i

Additional structures.
Structure	Methyltransferases
CCCn1c(=O)c2ccc(C(=O)NCC(C)C)cc2n2c(SCC(=O)Nc3cc(C)cc(C)c3)nnc12	i
CCOC(=O)c1cc2n(n1)CC(C)(C(=O)NCc1ccc(F)cc1)N(c1ccc(OC)cc1)C2=O (configuration not stated)	i
COc1ccc(C(=O)N2CCCCC(NC(=O)NCc3ccco3)C2)cc1 (configuration not stated)	i
CC(C)CCNC(=O)c1ccc2c(=O)nc3c(-c4ccccc4F)n[nH]n3c2c1	i
CCOC(=O)c1cc2n(n1)CC(C)(C(=O)NCc1ccccc1)N(c1ccc(C)cc1)C2=O (configuration not stated)	i
OCCN1CCN(CCCN2c3ccccc3C=Cc3ccccc32)CC1	i
O=C(Nc1ccccc1)c1cc([N+](=O)[O-])ccc1Cl	i
CC(C)=CCn1c(-c2cc(C)oc2C)cn2cc(C(=O)N(C)CC(C)C)nc2c1=O	i
Cc1ccc(N2C(=O)c3cc4sccc4n3CC2(C)C(=O)NC2CCCCCC2)cc1 (configuration not stated)	i
COc1ccccc1CNC(=O)C1(C)Cn2c(cc3ccccc32)C(=O)N1Cc1ccccc1OC (configuration not stated)	i
CCS(=O)(=O)N[C@@H]1CN(C2CCOCC2)C[C@H]1CN(C)C	i
CCn1cnnc1CC1CCN(C(=O)C2CCN(Cc3nc(-c4cccc(C)c4)oc3C)CC2)CC1	i
CNC(=O)c1ccccc1Nc1nc(Nc2ccc3c(c2OC)CCC[C@@H](N2CCN(CCO)CC2)C3)ncc1Cl	u
C[S+](=O)([O-])N1Cc2ccccc2OC2(CCN(C(=O)c3cccc4[nH]ccc34)CC2)C1	i
CNC(=O)[C@H]1O[C@@H](n2cnc3c(NCc4ccc(N)cc4)ncnc32)[C@H](O)[C@@H]1O	i
Cc1ccc(CSc2nnc3n(CC(C)C)c(=O)c4cc(F)ccc4n23)cc1	i
COc1ccccc1CN1C(=O)c2ccc(-c3ccco3)n2CC1(C)C(=O)NC1CCCCCC1 (configuration not stated)	i
COc1ccc(CCNC(=O)C(C)n2ccc3cc(S(=O)(=O)N4CCCC4)ccc32)cc1OC (configuration not stated)	i
CC(C)(C)CC(=O)N1CCN2C(=O)c3ccc(Cl)cc3NC(=O)[C@H]2C1	i
O=C(O)C1=CCCNC1	i
CCCN1C(=O)c2cc3oc(C)cc3n2CC1(C)C(=O)NC1CCCCCC1 (configuration not stated)	i
CC1(C(=O)NC2CCCC2)Cn2c(ccc2-c2ccco2)C(=O)N1Cc1cccc(Br)c1 (configuration not stated)	i
COc1cccc(CN2C(=O)c3ccc(-c4ccco4)n3CC2(C)C(=O)NC2CCCCC2C)c1 (configuration not stated)	i
Cn1c(=O)n(C)c2cc(S(=O)(=O)NCc3ccc(F)cc3)ccc21	i
CC1(C(=O)NCc2ccccc2)Cn2c(ccc2-c2ccco2)C(=O)N1c1ccc(Cl)cc1 (configuration not stated)	i
CC(C)CNC(=O)c1ccc2c(=O)n(Cc3ccccc3)c3nn(CC(=O)c4ccccc4)c(=O)n3c2c1	i
CN(C)c1cccc(Oc2nnnn2[C@H]2CO[C@H]3[C@@H]2OC[C@@H]3NCC2CC2)c1	i
COc1ccccc1C(=O)N1CCCC(CN2CCC(C)CC2)CC1 (configuration not stated)	i
Cc1ccc(NC(=O)C2N(C(C)C)C(=O)C23CCCCC3)cc1 (configuration not stated)	i
CC(C)CCN1CC2(CCCN(C(=O)c3ccn(C)c(=O)c3)C2)CCC1=O (configuration not stated)	+

Taken from the entries so far for reference:
Structure	Methyltransferases
CC1(C(=O)NC2CCCC2)Cn2c(ccc2-c2ccco2)C(=O)N1Cc1cccc(Br)c1 (configuration not stated)	i
COc1cccc(CN2C(=O)c3ccc(-c4ccco4)n3CC2(C)C(=O)NC2CCCCC2C)c1 (configuration not stated)	i

Among those listed so far, these have bromine:
Structure	Methyltransferases
CC1(C(=O)NC2CCCCC2)Cn2c(cc3ccccc32)C(=O)N1Cc1cccc(Br)c1 (configuration not stated)	i
CC1(C(=O)NC2CCCC2)Cn2c(ccc2-c2ccco2)C(=O)N1Cc1cccc(Br)c1 (configuration not stated)	i

Following part:
SMILES | Methyltransferases
COc1ccccc1CN1C(=O)c2cc(-c3ccco3)nn2CC1(C)C(=O)NC1CCCCC1 (configuration not stated) | i
COc1ccc(-c2cc3n(n2)CC(C)(C(=O)NCc2ccccc2OC)N(c2ccc(F)cc2F)C3=O)cc1 (configuration not stated) | i
COc1ccc(N2C(=O)c3cc4ccccc4n3CC2(C)C(=O)NC2CCCC2)cc1OC (configuration not stated) | i
CCc1ccc(CNC(=O)c2cc3n(n2)CC(C)(C(=O)NCc2ccc(C)cc2)N(C)C3=O)cc1 (configuration not stated) | i
CC1(C(=O)NCc2ccccc2)Cn2c(ccc2-c2ccco2)C(=O)N1CCc1ccc(Cl)cc1 (configuration not stated) | i
CC(=O)O[C@H]1[C@H](O[C@H]2[C@@H]3C=CO[C@@H](O[C@@H]4O[C@H](CO)[C@@H](O)[C@H](O)[C@H]4O)[C@@H]3[C@@]3(CO)O[C@@H]23)O[C@@H](C)[C@H](OC(=O)/C=C/c2ccccc2)[C@H]1OC(=O)/C=C/c1ccccc1 | i
CCOc1ccc(N(C(=O)c2ccccc2F)S(=O)(=O)c2ccc3c(c2)n(C)c(=O)n3C)cc1 | i
O=S(=O)(NCC1CN(CC2CC2)CC12CCCCC2)c1cccs1 (configuration not stated) | i
CC(=O)c1ccc(Nc2nc3c(S(=O)(=O)c4ccc(C)c(C)c4)nnn3c3ccc(Cl)cc23)cc1 | i
O=C(NCCc1ccc(F)cc1)c1cc(CN2CCOCC2)on1 | i
C[C@@]1(O)[C@H](O)[C@@H](CO)O[C@H]1n1cnc2c(=O)[nH]c(N)nc21 | i
COc1ccc(CCC(=O)Nc2ccc3c(c2)C(=O)N(C)C2=NCCN23)cc1 | i
O=C(O)CC(=O)OC[C@H]1O[C@@H](Oc2ccc3c(c2)OC[C@H]2c4cc5c(cc4O[C@@H]32)OCO5)[C@H](O)[C@@H](O)[C@@H]1O | i
Cc1noc([C@@H]2CN(Cc3ccc[nH]3)C[C@H]2CO)n1 | i
CC(C)Cn1c(=O)c2ccc(C(=O)NC3CCCCC3)cc2n2c(=O)n(CC(=O)NC(C)C)nc12 | i
COc1ccc(Cc2ncc3c(n2)CN(C(=O)c2ccc(OC)c(O)c2)C3)cc1 | i
CN1CCN(c2nc3cc(C(F)(F)F)ccc3n3cccc23)CC1 | i
CN1CCN(c2ccc(-c3cccc(CN4CCOCC4)c3)cc2NC(=O)c2c[nH]c(=O)cc2C(F)(F)F)CC1 | u
COCCCN1C(=O)c2cc3sccc3n2CC1(C)C(=O)NC1CCCCCCC1 (configuration not stated) | i
CCN(CC)C(=O)C[C@@H]1CCNC[C@@H]1Cc1cc(-c2ccccn2)on1 | i
CC(=O)OCC1OC(O[C@H]2CC[C@@]3(C)C(CC[C@]4(C)C3CC=C3[C@@H]5CC(C)(C)CC[C@]5(C(=O)O)CC[C@]34C)[C@]2(C)CO)C(O)C(O)C1OC1OC(C)C(O)C(OC2OCC(O)C(O)C2O)C1O (some centres not stated) | i
CC1(C)CN(C(=O)c2ccc(-c3cccc4nc(NC(=O)C5CC5)nn34)cc2)C1 | i
COCCN(CC1CCN(Cc2ccccc2F)CC1)C(=O)c1cc[nH]c1C | i
CSCCC(NS(=O)(=O)c1ccc2c(c1)oc(=O)n2C)C(=O)N1CCN(c2ccc(C)cc2)C(C)C1 (configuration not stated) | i
CN(C)CCOc1cc(NS(=O)(=O)c2c(Cl)cc(C(F)(F)F)cc2Cl)ccc1Cl | i
Cc1noc(C)c1CN1CCOC[C@H](O)C1 | i
Cn1nc(C2CC2)cc1NC(=O)C1CCCC1 | i
CCCn1c(=O)c2ccc(C(=O)NC3CCCCC3)cc2n2c(=O)n(CC(=O)c3ccccc3)nc12 | i
COc1ccc(N2C(=O)CSc3c(c4ccccc4n3C)C2C(=O)NCCCOC(C)C)cc1 (configuration not stated) | i
Cc1ccc(N2C(=O)c3cc(C(C)(C)C)nn3CC2(C)C(=O)NCc2ccccc2)cc1C (configuration not stated) | i
Cc1cnc(CC2CCN(C(=O)Nc3ccc4c(c3)OCCO4)C2)n1C1CC1 (configuration not stated) | i
O=C(c1n[nH]c2ccccc12)N1CCC(Cc2nc(-c3ccncc3)n[nH]2)CC1 | i
Cc1ccc(CNC(=O)CSc2nnc3n(Cc4ccc(C)cc4)c(=O)c4ccccc4n23)cc1 | i
CCCc1cc2c(-c3ccccc3)cc(=O)oc2cc1OCc1ccc(C(=O)OC)o1 | i
OC[C@@H]1CNC[C@H]1C1CCN(Cc2ccncc2F)CC1 | i
CC1=CC(=O)C(=C(C)C)CC2C1CCC2(C)O (configuration not stated) | i
CC(C)(C)CC(=O)NC[C@H]1OC[C@@H](NC2CCCC2)[C@@H]1O | i
COc1ccc(-c2nnn3c2nc(NCc2ccccc2Cl)c2ccccc23)cc1 | i
CC(C)(C)c1cc2n(n1)CC(C)(C(=O)NC1CCCCC1)N(Cc1ccc(F)cc1)C2=O (configuration not stated) | i
CCOCCCNC(=O)C1c2c(n(C)c3ccccc23)SCC(=O)N1c1ccc(F)cc1F (configuration not stated) | i
COc1ccc(C(=O)Cn2nc3n(CC(C)C)c(=O)c4ccc(C(=O)NCC(C)C)cc4n3c2=O)cc1 | i
O=C(CSc1nnc2n(Cc3ccccc3)c(=O)c3ccccc3n12)Nc1cccc(F)c1 | i
CCc1ccc(CNC(=O)c2cc3n(n2)CC(C)(C(=O)NC2CCCC2)N(C)C3=O)cc1 (configuration not stated) | i
CCCN1C(=O)c2c(C(=O)NCCc3ccc(OC)cc3OC)ncn2CC1(C)C(=O)NCc1ccc(C)cc1 (configuration not stated) | i
COc1ccc(CNC(=O)C[C@@H]2O[C@H](Cn3cc(CN(C)Cc4ccccc4)nn3)[C@@H](O)[C@H]2O)cc1 | i
CN(Cc1ccccc1)Cc1cn([C@H]2CO[C@H]3[C@@H]2OC[C@@H]3NC(=O)CCC(=O)O)nn1 | i
CC1(C)CC(=O)C2=C(C1)NC(=S)NC2c1cccc(O)c1 (configuration not stated) | i
CCOC(=O)C1CCCN(S(=O)(=O)c2ccc3[nH]c(=O)[nH]c3c2)C1 (configuration not stated) | i
COc1cccc(CNC(=O)CCc2nnc3n(Cc4ccc(F)cc4)c(=O)c4ccccc4n23)c1 | i
CO[C@H]1C[C@@H]2CC[C@@H](C)[C@@](O)(O2)C(=O)C(=O)N2CCCC[C@H]2C(=O)O[C@H]([C@H](C)C[C@@H]2CC[C@@H](OP(C)(C)=O)[C@H](OC)C2)CC(=O)[C@H](C)/C=C(\C)[C@@H](O)[C@@H](OC)C(=O)[C@H](C)C[C@H](C)/C=C/C=C/C=C/1C | i

Next section:
SMILES | Methyltransferases
COc1ccc(OC)c(N2C(=O)c3cc4ccc(OC)cc4n3CC2(C)C(=O)NC2CCCCC2)c1 (configuration not stated) | i
COc1ccc2c(c1)C(CN1CCN(c3ccc4oc(C(=O)O)cc4c3Cl)CC1)=CC(C)(C)CO2 | +
CC1CC2(O)OC(=O)C3=C2C(CCC3)[C@@]12C[C@@H](c1ccoc1)OC2=O (some centres not stated) | i
Cc1ccc(NC(=O)Cn2c(=O)oc3cc(S(=O)(=O)NCc4ccccc4)ccc32)cc1C | i
